# LANA-H2B inh = blocks KSHV LANA binding to histone H2A/H2B; Q9QR71; cell-free LANA-H2A/H2B peptide, fluorescence polarization; inhibition, % (concentration not given with the values); 320,000 compounds, 0.6% hits; in the data active = inhibition mostly above about 10%, no sharp cut-off; inactive = mostly below about 6.7%;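 also: stock transfer was 7.5 nL into about 10 µL; 0% = median of vehicle wells and 100% = median of positive control wells; one replicate is shown; the record names a cut of 25% in any replicate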
# Target sequence (Q9QR71 whole entry, looked up): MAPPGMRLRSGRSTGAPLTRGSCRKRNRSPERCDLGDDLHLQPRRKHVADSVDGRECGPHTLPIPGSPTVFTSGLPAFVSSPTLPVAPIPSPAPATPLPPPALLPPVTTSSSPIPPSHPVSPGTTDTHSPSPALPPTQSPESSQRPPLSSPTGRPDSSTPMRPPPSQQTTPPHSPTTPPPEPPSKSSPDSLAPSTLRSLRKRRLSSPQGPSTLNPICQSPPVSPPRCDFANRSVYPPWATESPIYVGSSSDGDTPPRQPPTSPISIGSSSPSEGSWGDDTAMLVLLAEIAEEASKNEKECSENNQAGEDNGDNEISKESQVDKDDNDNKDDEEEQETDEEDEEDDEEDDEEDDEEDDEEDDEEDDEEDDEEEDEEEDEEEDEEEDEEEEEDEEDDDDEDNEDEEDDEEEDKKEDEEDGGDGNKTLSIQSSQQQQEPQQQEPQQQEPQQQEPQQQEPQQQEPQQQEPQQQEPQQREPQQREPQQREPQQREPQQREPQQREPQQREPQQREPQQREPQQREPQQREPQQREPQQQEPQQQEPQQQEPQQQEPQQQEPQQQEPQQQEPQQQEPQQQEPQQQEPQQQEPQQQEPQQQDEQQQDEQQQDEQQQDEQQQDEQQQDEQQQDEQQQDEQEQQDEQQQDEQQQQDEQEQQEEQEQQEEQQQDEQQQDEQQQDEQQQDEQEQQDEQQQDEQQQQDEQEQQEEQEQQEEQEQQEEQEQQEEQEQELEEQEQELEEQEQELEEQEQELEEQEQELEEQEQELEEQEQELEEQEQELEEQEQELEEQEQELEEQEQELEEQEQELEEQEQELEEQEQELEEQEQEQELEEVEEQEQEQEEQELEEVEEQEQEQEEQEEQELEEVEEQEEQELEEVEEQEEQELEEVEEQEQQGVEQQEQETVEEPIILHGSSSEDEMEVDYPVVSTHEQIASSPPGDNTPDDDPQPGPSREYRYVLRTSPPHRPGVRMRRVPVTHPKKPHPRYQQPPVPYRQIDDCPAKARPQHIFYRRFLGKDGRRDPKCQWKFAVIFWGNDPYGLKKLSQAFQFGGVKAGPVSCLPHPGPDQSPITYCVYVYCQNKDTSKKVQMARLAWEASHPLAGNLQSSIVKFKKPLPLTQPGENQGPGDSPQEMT
# T cruzi repl = T. cruzi replication inhibition. inhibition, % (test concentration not listed). T. cruzi beta-gal in NIH3T3, luminescence, 90 h. 300,000 compounds, 1.4% hits. AID 1885;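 active = mean inhibition across valid replicates above about 55%, limit read from the data; inconclusive = mean below that limit but half or more replicates reach it; inactive = mean below it, under half of replicates reach it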;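 also: signal also drops with host cell toxicity which is not excluded here; 0% = plate median of DMSO wells and 100% = zero luminescence signal; higher percent means less beta-gal luminescence so fewer parasites; stock transfer was 50 nL into about 50 µL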
# Beta2AR agonist = activates human beta-2 adrenergic receptor causing internalization; P07550; response, % (no concentration beside the values); 340,000 compounds, 0.43% hits; AID 504454; Am2.2-beta2AR cells, FAP receptor internalization, flow cytometry; reference of the scale not given here;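 active = response above a set limit, near 3 SD of response in nonfluorescent compounds, cut at about 42% in these data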;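 also: stock transfer was 100 nL into about 11 µL; a reference agonist was the positive control; negative values mostly stem from fluorescent compounds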
# A1 inh = inhibitors of the anti-apoptotic protein A1, read as caspase activation | MEF A1-2A-BIM cells, Caspase-Glo 3/7 luminescence, 3 h; percent of clofoctol response, vehicle zero | caspase activation, % (no concentration beside the values) | 330,000 compounds, 0.066% hits;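 active = over half of replicate activation scores above 10%, or exactly half above 10 with the replicate mean above 10; inconclusive = replicate mean below 10 yet half the replicates above 10; inactive = over half of replicates below 10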;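 also: wells of about 30 µL received 50 nL stock; many hits fall short of the cut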
# Beta cell apopt = beta cell apoptosis inhibition; INS-1E cytokine-induced death, ATP luminescence, 48 h; percent of positive-control rescue, neutral wells zero; protection from apoptosis, % (concentration not given with the values); 300,000 compounds, 0.8% hits; AID 435005;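 active = all replicates at 75% or more, or half of them and the mean; inconclusive = half reach 75% but not the mean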;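 also: 0% = cytokine-treated negative control wells and 100% = positive control rescue; higher means more ATP so stronger rescue from cytokine killing; wells of about 40 µL received 100 nL stock; the first replicate is given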
# UCH37 inh = blocks the human deubiquitinase UCH37; purified proteasome/UCH37, Ub-AMC cleavage fluorescence; inhibition, % (no concentration beside the values); 330,000 compounds, 0.33% hits;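 active = mean of two replicates above 20%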;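 also: 0% = compound-free wells with enzyme and 100% = wells lacking proteasome; stock transfer was 100 nL into about 20 µL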
#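 Reagent: Ub-AMC substrate; assay system: Proteasome-associated human UCH37 deubiquitinase; controls: no-proteasome and no-compound wells; read-out: % inhibition of Ub-AMC cleavage fluorescence; timing: 30 min preincubation with enzyme, 25 min cleavage at room temperature; signal: AMC fluorescence from Ub-AMC cleavage, excitation 355 nm, emission 460 nm; buffer or medium: Tris-HCl pH 7.4 plus ovalbumin, ATP-MgCl2, DTT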
# RanGTP-Imp inh = inhibitors of RanGTP-importin-beta interaction, primary screen, biochemical, FRET, CFP-Ran, YFP-importin-beta, homogeneous; cell-free CFP-Ran/YFP-importin-beta FRET ratio; inhibition, % (concentration not given with the values); 300,000 compounds, 1.1% hits; AID 2216;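 active = most replicates above 15%; inconclusive = exactly half above 15%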;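 also: 0% = DMSO wells and 100% = Ran loaded with GDP instead of GTP; wells of about 40 µL received 100 nL stock; the first replicate is given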
# Calb FLC = C. albicans growth modulation with fluconazole | C. albicans CaCi-2 (fluconazole-resistant clinical isolate) + fluconazole, Alamar Blue growth, 48 h | growth inhibition, % (test concentration not listed) | 300,000 compounds, 0.57% hits;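 active = most replicates above 75%; inconclusive = exactly half above 75%; inactive = most below 75%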;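 also: all wells also contain fluconazole at 8 µg/ml as a sub-toxic cotreatment; 0% = median of DMSO wells and 100% = median of geldanamycin control wells; wells of about 8 µL received 7.5 nL stock; the first replicate is given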
# The depositor's hits bear a star; u = inconclusive; x = not tested or not shown.
SMILES,LANA-H2B inh,T cruzi repl,Beta2AR agonist,A1 inh,Beta cell apopt,UCH37 inh,RanGTP-Imp inh,Calb FLC
Cc1cc(C(=O)COC(=O)CCCN2C(=O)c3ccccc3C2=O)c(C)n1C,4.8,-4,1,0.8,3,-0.9,1.3,5
Cc1c(-n2cc(C(=O)O)c(=O)c3cc(F)c(N4CCCC4)c(F)c32)c(=O)n(-c2ccccc2)n1C,-4.3,-5,6,1.0,-7,-115,0.7,39
CC(Oc1ccccc1)c1nnc(N)s1 (stereo unspecified),6.2,-11,5,0.5,-1,0.9,-0.9,14
COCCNc1c2c(nc3ccccc13)CCC2,-2.0,13,-6,1.2,5,6.2,-0.8,3
Cc1nc(-c2ccccc2)sc1C(=O)CSc1ccc(F)cc1,1.5,19,0,-0.6,1,2.7,0.8,21
O=C(CN1CCN(C(=O)N2CCOCC2)CC1)Nc1cc(Cl)ccc1Cl,-1.6,-1,-4,-0.2,-11,0.3,3.0,-4
CCn1c(=O)c2sccc2n2c(CCCC(=O)NCc3cccnc3)nnc12,-6.5,-49,-6,-0.9,-5,1.7,1.9,7
CSCC[C@@H](CO)NC(=O)c1ccc2nc(C3CCCCC3)oc2c1,-0.2,6,0,0.4,x,2.8,-5.3,2
O=C1NC(=O)/C(=C\c2ccccc2OCc2ccccc2)S1,0.9,23,7,0.4,6,-2.2,-2.6,u
Fc1ccc(-c2cnc(-c3cccs3)o2)cc1,-1.8,-11,-7,-3.9,3,-82,3.9,-18
O=C(Cn1c2ccc(F)cc2c2nc3n(c(=O)c21)CCS3)NCC1CCCO1 (stereo unspecified),2.0,-1,-17,0.0,-10,-95,2.2,-2
Cc1cccc(N=C/C(C(=O)C(F)(F)F)=C(\O)c2ccco2)c1,5.2,-7,0,0.0,1,5.2,-4.8,-9
Oc1ccc(-c2csc(Nc3ncccn3)n2)cc1O,x,-97,7,x,x,4.6,-1.8,-11
COc1ccccc1-c1cc(C(=O)N2CCN(c3ccccc3)CC2)no1,0.2,5,1,2.0,1,6.3,4.7,5
COc1ccc(N2CCN(C(C)=C3C(=O)c4ccccc4C3=O)CC2)cc1,-5.3,-6,-3,-1.0,-2,4.6,u,-15
COc1ccc(OCC(=O)O/N=C(\N)Cc2cccs2)cc1,1.3,-10,-1,-0.4,1,-0.6,5.3,-7
COc1ccc(NC(=O)Cc2ccc(Cl)cc2)cc1NC(=O)c1ccco1,-2.1,-18,10,0.2,1,-84,-1.9,8
CC(C)CC(=O)Nc1ccnc(-c2ccncc2)n1,-2.2,-1,-6,0.1,-8,3.3,8.4,-5
O=C(CSc1nnc2c(n1)[nH]c1ccccc12)OCc1ccccc1,-11,-8,4,-1.0,-2,3.2,4.9,-2
COc1ccc(CCNC(=O)CN2C(=O)COc3ccc(S(=O)(=O)N4CCCC4)cc32)cc1OC,-0.2,-5,14,-0.6,8,1.2,2.4,-3
O=C(NCc1ccccc1)NC1(C(=O)N2CCN(c3ccccc3)CC2)CCCCC1,1.9,3,10,-0.6,0,1.4,0.6,-3
CCOC(=O)C(=CNc1ccccc1C)C(=O)OCC,-1.5,4,-18,-0.5,24,5.0,-4.9,-13
CCCCNC(=S)NNC(=O)c1ccc(Br)o1,-6.1,4,-7,0.6,-2,1.8,-1.2,-4
CC(C)CCN(C(=O)CCCSc1nc2ccccc2[nH]1)c1c(N)n(Cc2ccccc2)c(=O)[nH]c1=O,x,9,-2,-0.2,0,x,-3.7,-12
CCOC(=O)c1ccccc1NC(=O)C1COc2ccccc2O1 (stereo unspecified),-2.4,1,8,-0.9,x,0.3,4.7,0
COc1ccc(Nc2nnc(Cc3ccc(Cl)cc3)c(=O)[nH]2)c(OC)c1,-1.4,16,3,0.1,-4,0.5,-0.4,28
COc1ccc(CC(=O)NC(=S)Nc2cccc(C)c2)cc1,0.2,16,-99,0.9,-5,4.9,-2.8,-22
O=C(Nc1ccc(F)cc1)C(c1ccccc1)N1CCN(S(=O)(=O)c2c(F)cccc2F)CC1 (stereo unspecified),-2.4,10,0,0.7,-2,3.1,-2.3,2
CN(c1ccc(F)cc1)S(=O)(=O)c1ccc(Cl)c(C(=O)OCC(=O)NCc2ccco2)c1,4.2,-6,-11,-0.5,-7,2.6,-1.2,-4
S=c1oc(-c2ccncc2)nn1CCc1ccncc1,3.5,-3,4,2.3,-4,-0.3,6.9,5

# Just Beta cell apopt, Beta2AR agonist and A1 inh, for four of the compounds above:
SMILES	Beta cell apopt	Beta2AR agonist	A1 inh
CC(C)CCN(C(=O)CCCSc1nc2ccccc2[nH]1)c1c(N)n(Cc2ccccc2)c(=O)[nH]c1=O	0	-2	-0.2
COc1ccc(CC(=O)NC(=S)Nc2cccc(C)c2)cc1	-5	-99	0.9
CCCCNC(=S)NNC(=O)c1ccc(Br)o1	-2	-7	0.6
O=C(NCc1ccccc1)NC1(C(=O)N2CCN(c3ccccc3)CC2)CCCCC1	0	10	-0.6

# (next part)
SMILES,LANA-H2B inh,T cruzi repl,Beta2AR agonist,A1 inh,Beta cell apopt,UCH37 inh,RanGTP-Imp inh,Calb FLC
O=C(NCCc1cccc(F)c1)C1CCN(S(=O)(=O)c2ccccc2)CC1,-0.4,2,-6,-0.2,-3,5.9,2.9,-1
CN(Cc1nc(-c2ccccc2)no1)C(=O)c1ccco1,1.7,-8,0,0.0,-2,2.6,0.0,-3
Cc1ccc(N(CC(=O)NCc2ccc(F)cc2)S(=O)(=O)c2c(C)nn(C)c2C)cc1,1.1,14,4,1.1,20,4.5,-2.1,2
CCCc1cc(C(=O)Nc2cc(OC)ccc2OC)cs1,6.4,-3,-3,0.6,-5,1.2,-2.0,-12
O=C(NN1C(=O)/C(=C/c2cccnc2)SC1=S)C(c1ccccc1)c1ccccc1,-1.2,16,5,0.1,7,12,-1.7,1
CCc1ccc(OCCCC(=O)Nc2ccc(S(=O)(=O)Nc3cc(C)nc(C)n3)cc2)cc1,5.1,-8,-3,0.7,-4,4.5,12,4
CC(C)Cc1ccc(/C=C/C(=O)N2CCCCC2)cc1,2.9,26,8,-5.6,4,3.2,-1.0,1
CC(=O)Nc1cc(NC(C)=O)c(N=Nc2ccccc2)cc1C,-2.6,x,0,1.5,-5,10,1.6,-3
COc1ccc(N2CCN(C(=O)c3ccc(NC(=O)C4=CSCCO4)cc3)CC2)cc1,2.9,0,-3,-1.3,x,0.4,5.7,-10
O=C(NC(=S)NC1CCCc2ccccc21)c1ccc(F)cc1 (stereo unspecified),-1.9,-13,11,-0.2,9,2.9,6.7,-6
CNC(=S)NNC(=O)c1ccccc1Cl,-5.4,-6,-2,-0.8,-6,1.7,1.2,-3
CN1C(C(=O)Nc2ccc(C(=O)O)cc2)=C(O)c2ccccc2S1(=O)=O,-2.1,x,-2,-0.3,-1,6.9,x,x
COc1ccc(C2NC(=S)NC(C)=C2C(=O)N2CCOCC2)cc1 (stereo unspecified),-7.1,0,-3,0.7,-1,3.8,-1.3,-11
O=C(COC(=O)/C=C/c1ccc(Cl)c(Cl)c1)NC1CCCC1,0.0,x,-2,0.7,-1,2.3,x,x
O=C(COC(=O)COc1ccc(Cl)cc1Cl)NC1CCCCCC1,-0.6,x,2,-0.3,1,-1.5,x,x
C/C(Cl)=C\CNC(C)c1ccccc1 (stereo unspecified),-0.1,-9,9,-0.3,-3,3.2,-1.1,-1
Cc1cc(C(=O)OCC(=O)NC(C)C)c2ccccc2n1,-6.7,1,2,0.1,4,-4.2,-0.5,-4
Oc1ccc(CN2CCCCC2)c2cccnc12,-15,68*,0,0.7,5,-3.2,1.8,103*
CCNC(=O)NC(C(=O)OC)C12CC3CC(CC(C3)C1)C2 (stereo unspecified),-7.7,7,-2,0.4,-1,2.7,0.6,12
COc1ccc2cc(C3(C)NC(=O)N(CC(=O)NCC(F)(F)F)C3=O)ccc2c1 (stereo unspecified),-3.8,-11,25,-0.1,0,2.2,-2.7,-6
CN(C(=O)CSCC(=O)Nc1ccc(Cl)cc1)C1CCCCC1,-1.2,x,1,0.7,-5,3.6,x,x
COc1ccc(/C(C)=N/OCC(=O)N2CC3(C)CC2CC(C)(C)C3)cc1 (stereo unspecified),x,13,-5,0.8,-4,x,7.8,0
O=C(c1cc2cc3ccc(Cl)cc3nc2o1)N1CCCCCC1,4.0,13,-8,0.3,1,1.4,-3.8,-4
O=C(CSc1nnnn1-c1ccccc1)N1CCN(C(=O)c2ccco2)CC1,-4.0,-7,-5,1.4,-1,0.6,-0.5,u
CCOc1ccccc1NC(=O)c1ccc(NC(=O)C2CCCO2)cc1 (stereo unspecified),4.0,-7,0,-0.5,-1,1.6,0.4,-8
O=C(COc1cccnc1[N+](=O)[O-])NCc1ccc2c(c1)OCO2,-1.3,0,-9,-0.1,-3,0.2,0.6,-4
Cc1ccc(NC(=O)c2nc(S(=O)(=O)Cc3ccccc3C)ncc2Cl)cc1C,-13,-59,32,1.8,52,x,-0.6,-3
CCN(CC)CCCNC(=O)CN1N=C(c2ccc(OC)cc2)CCC1=O,-7.5,-2,3,0.4,-17,4.3,-2.4,-2
Cc1ccc(S(=O)(=O)Oc2ccc(/C=N/NC(=O)c3ccncc3)cc2)cc1,-4.1,-2,2,-0.6,x,x,1.7,-11
Cc1ccc(/C=C/c2nc3ccccc3c(=O)n2CCc2ccccc2)cc1,9.4,35,2,1.1,2,1.0,-1.3,-1
c1ccc(N(c2ccccc2)c2nc(N3CCCC3)nc(-n3ccnc3)n2)cc1,-4.4,57*,18,-0.8,24,1.9,6.5,3
COc1cccc(NC(=O)NCCCN2CCN(c3ccc(F)cc3)CC2)c1,0.6,11,0,0.5,-2,3.0,-1.6,-41
CCN(CC)S(=O)(=O)c1ccc(NC(=O)CN(c2cccc(F)c2)S(C)(=O)=O)cc1,3.1,1,4,0.0,0,2.6,u,17
Cc1ccc(-c2n[nH]c(=S)n2/N=C/c2cc3c(cc2[N+](=O)[O-])OCO3)cc1,1.4,2,1,1.0,x,x,0.6,-2
CC(=O)Oc1ccccc1N1C(=O)c2ccc(C(=O)O)cc2C1=O,-2.2,4,1,0.1,-1,5.1,1.1,0
N#C/C(=C\c1cccs1)C(=O)c1ccccc1Cl,-2.2,-17,54*,0.7,-16,0.5,4.2,-2
CCN(c1ccccc1)S(=O)(=O)c1ccc(C(=O)N(CCCN(C)C)c2nc3cc4c(cc3s2)OCO4)cc1,-2.3,24,31,0.0,-13,4.9,-1.6,-2

# A different layout for 2 compounds above:
> COc1cccc(NC(=O)NCCCN2CCN(c3ccc(F)cc3)CC2)c1
  LANA-H2B inh = 0.6; T cruzi repl = 11; Beta2AR agonist = 0; A1 inh = 0.5; Beta cell apopt = -2; UCH37 inh = 3.0; RanGTP-Imp inh = -1.6; Calb FLC = -41
> Cc1nc(-c2ccccc2)sc1C(=O)CSc1ccc(F)cc1
  LANA-H2B inh = 1.5; T cruzi repl = 19; Beta2AR agonist = 0; A1 inh = -0.6; Beta cell apopt = 1; UCH37 inh = 2.7; RanGTP-Imp inh = 0.8; Calb FLC = 21
